LANA-H2B inh – blocks KSHV LANA binding to histone H2A/H2B | Q9QR71 | cell-free LANA-H2A/H2B peptide, fluorescence polarization | inhibition, % (concentration not given with the values) | 320,000 tested, 0.6% active | AID 2629; in the data active means inhibition mostly above about 10%, no sharp cut-off; inactive means mostly below about 6.7%;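 further: stock transfer was 7.5 nL into about 10 µL; 0% = median of vehicle wells and 100% = median of positive control wells; one replicate is shown; the record names a cut of 25% in any replicate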
UCH37 DUB inh – human UCH37 deubiquitinating enzyme inhibition; 330,000 tested, 0.33% active; Q9Y5K5; AID 588478; inhibition, % (no concentration beside the values); purified proteasome/UCH37, Ub-AMC cleavage fluorescence;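 active means mean of two replicates above 20%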;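 further: 0% = compound-free wells with enzyme and 100% = wells lacking proteasome; stock transfer was 100 nL into about 20 µL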
Target sequence (Q9Y5K5 whole entry, looked up): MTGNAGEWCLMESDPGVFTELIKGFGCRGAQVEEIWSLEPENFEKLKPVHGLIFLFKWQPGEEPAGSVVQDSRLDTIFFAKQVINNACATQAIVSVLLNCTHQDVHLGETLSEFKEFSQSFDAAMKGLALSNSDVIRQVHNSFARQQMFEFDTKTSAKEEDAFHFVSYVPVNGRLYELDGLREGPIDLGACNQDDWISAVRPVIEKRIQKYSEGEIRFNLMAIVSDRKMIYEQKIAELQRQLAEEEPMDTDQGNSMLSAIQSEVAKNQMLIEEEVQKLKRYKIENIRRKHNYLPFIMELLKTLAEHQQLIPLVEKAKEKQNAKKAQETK
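assay system = human UCH37 enzyme supplied as purified proteasome complex | amount = proteasome at 0.15 nM in the dispensed enzyme solution | schedule = 30 min compound-proteasome preincubation then 25 min substrate reaction, room temperature | measured by = fluorescence, ex 355 nm, em 460 nm | benchmarks = no-proteasome wells (full inhibition) and compound-free wells (no inhibition)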
Beta2AR agonist – human beta-2 adrenergic receptor agonism by FAP; P07550; Am2.2-beta2AR cells, FAP receptor internalization, flow cytometry; reference of the scale not given here; response, % (concentration not given with the values); 340,000 tested, 0.43% active; AID 504454;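 active means response above a set limit, near 3 SD of response in nonfluorescent compounds, cut at about 42% in these data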;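 further: stock transfer was 100 nL into about 11 µL; a reference agonist was the positive control; negative values mostly stem from fluorescent compounds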
Target sequence (P07550 whole entry, looked up): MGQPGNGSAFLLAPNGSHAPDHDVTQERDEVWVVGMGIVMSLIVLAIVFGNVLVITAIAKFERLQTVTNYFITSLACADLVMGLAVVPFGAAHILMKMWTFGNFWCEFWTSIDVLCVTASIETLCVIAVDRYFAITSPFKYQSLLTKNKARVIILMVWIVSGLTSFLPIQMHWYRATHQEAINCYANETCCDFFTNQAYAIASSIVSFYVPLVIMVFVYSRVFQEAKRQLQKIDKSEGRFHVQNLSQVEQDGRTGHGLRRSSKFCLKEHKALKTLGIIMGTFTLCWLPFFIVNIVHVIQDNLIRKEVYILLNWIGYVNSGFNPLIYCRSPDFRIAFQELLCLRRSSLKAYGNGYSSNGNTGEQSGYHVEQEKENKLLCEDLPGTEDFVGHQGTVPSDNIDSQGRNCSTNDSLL
Vif TR-FRET – inhibitors of Vif binding to APOBEC3G peptide, primary screen, biochemical, TR-FRET, GST-Vif 1-94, biotin-A3G peptide, dose response retest (AID 1117319) | TR-FRET GST-Vif / biotin-A3G peptide binding; higher % means a stronger effect; test concentration not given here; strong numbers were not always called active | inhibition, %, or IC50 in µM where a hit was titrated | 260,000 tested, 0.57% active;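 active means above the screen mean plus three standard deviations and confirmed in dose response; inconclusive means results disagree or hit not tested in dose response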;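 further: Vif residues 1-94 fused to GST binding biotinylated APOBEC3G peptide 110-148; 0% = full assay without inhibitor and 100% = GST in place of GST-Vif; retest series ran down from 100 µM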
Ecoli growth – E. coli growth inhibition; Escherichia coli growth, OD600, 23 h; active compounds read low; OD600 absorbance (test concentration not listed); 330,000 tested, 0.21% active;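 active means OD600 absorbance below the run mean of sample wells minus 3.6 SD, in any replicate, cut at about 0.56 in these data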;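 further: stock transfer was 300 nL into about 60 µL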
Bfl-1 A1 inh – inhibitors of the anti-apoptotic protein A1, read as caspase activation | MEF A1-2A-BIM cells, Caspase-Glo 3/7 luminescence, 3 h; percent of clofoctol response, vehicle zero | caspase activation, % (test concentration not listed) | 330,000 tested, 0.066% active;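 active means over half of replicate activation scores above 10%, or exactly half above 10 with the replicate mean above 10; inconclusive means replicate mean below 10 yet half the replicates above 10; inactive means over half of replicates below 10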;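 further: wells of about 30 µL received 50 nL stock; many hits fall short of the cut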
HNF4A DNA FP – change in binding of human HNF4 alpha to DNA | HNF4a-FITC DNA binding, fluorescence polarization, 1 h | 360,000 tested, 0.3% active | activity change, % at 10 µM; in the data active means activity change above about 30%, passing the limit was not always enough;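 further: controls were the assay level and a saturating level of protein; the project sought stronger binding though the title names inhibitors; some compounds called inactive have numbers as strong as hits; positive values seem to mean higher polarization but the record does not say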
The depositor's hits bear a star; ? = inconclusive; · = no result given; + = active, no number.

no.	molecule	HNF4A DNA FP	UCH37 DUB inh	LANA-H2B inh	Bfl-1 A1 inh	Vif TR-FRET	Beta2AR agonist	Ecoli growth
1	O=C(O)c1cn(CCOc2ccccc2Cl)c2ccccc12	-4.2	1.1	-5.2	0.0	0.2%	-7.8	0.68
2	COc1ccccc1NC(=O)C(C)N1C(=O)C2CCCCC2C1=O (stereo not given)	1.6	4.0	·	0.5	9.7%	1.6	0.668
3	Nc1ncnc2c1ncn2[C@@H]1O[C@H](CNCc2ccc(-n3cccn3)cc2)[C@@H](O)[C@H]1O	-3.6	1.1	·	1.3	5.5%	0.3	0.701
4	Cc1cc(C)c(C(=O)c2ccccc2)c(C)c1	0.8	0.6	·	·	-2.0%	2.5	0.681
5	O=C(Cc1ccc2c(c1)OCCO2)N1CCN(S(=O)(=O)c2cccc(C(F)(F)F)c2)CC1	0.0	3.7	9.4	0.9	·	0.6	0.682
6	O=C(Nc1ccccc1Br)c1ccc2nccnc2c1	-4.7	2.8	-4.5	-5.0	·	-3.3	0.695
7	C=CCN1c2ccccc2[C@]23C[C@@H](C(=O)OC)N(C(=O)NCCC)C2=NC(C(=O)OC)=C(C(=O)OC)[C@H]13	2.9	2.9	2.8	2.3	·	0.6	·
8	COc1ccccc1CN(Cc1ccco1)S(=O)(=O)c1ccc(-n2cnnn2)c(OC)c1	-1.9	3.2	6.5	0.2	0.9%	-5.7	0.711
9	Cc1ccccc1OCC(=O)Nc1ccccc1C(=O)N1CCCCC1	5.2	1.3	-2.3	0.6	·	-4.5	0.661
10	CN(C)/C(=N\S(=O)(=O)c1ccc(Br)cc1)c1ccccc1	3.1	·	-7.5	0.8	·	2.6	·
11	Clc1ccc(-c2nnc(C3CCCCC3)o2)cc1	4.8	4.3	3.6	-1.6	-0.3%	-8.6	0.709
12	CC(=O)N1N=C(c2ccc(C(C)(C)C)cc2)OC1(C)C	-0.2	2.5	2.8	-0.2	·	5.9	0.687
13	Cc1ccc(C(C(=O)NCc2ccc(F)cc2)N(Cc2ccco2)C(=O)c2snc(C(N)=O)c2N)o1 (stereo not given)	1.5	-26.0	0.5	-0.5	·	22.6	0.696
14	CCOc1ccc2[nH]c(=O)c(CN(Cc3ccco3)C(=O)c3cccc(F)c3)cc2c1	2.3	-5.5	-3.9	0.0	30.6%	3.5	0.695
15	Cn1c(SCC(=O)N/N=C/c2cccnc2)nnc1-c1ccccc1	-1.1	·	-8.3	-0.2	-7.2%	0.3	·
16	CC(C)n1cnc2c(Nc3ccc(F)c(Cl)c3)nc(NCCO)nc21	-13.3	0.1	1.9	-1.2	·	0.1	0.668
17	COc1ccccc1NC(=S)NC(=O)CC(C)C	-1.8	2.0	-2.2	0.2	11.7%	6.2	0.775
18	CCS(=O)(=O)N1CCCC(C(=O)NCCCOC)C1 (stereo not given)	1.0	-1.1	-2.0	0.3	0.7%	-1.2	0.743
19	CCOC(=O)c1cnn(-c2ccc([N+](=O)[O-])cc2)c1N	2.5	5.7	1.8	0.4	-4.1%	-4.5	0.666
20	COc1ccccc1CCc1nnc(CCC(=O)NCC(C)Oc2cccnc2)o1 (stereo not given)	-0.9	0.2	3.5	0.6	-2.3%	-0.2	0.669
21	O=C(CCCc1nc(-c2ccccc2)no1)Nc1cccnc1	0.1	-1.2	3.0	0.2	?	-5.8	0.703
22	O=C(c1ccc([N+](=O)[O-])cc1)N1CCN(c2ncc(Br)cn2)CC1	3.9	4.7	-0.9	0.2	-8.5%	-3.8	0.672
23	COc1ccc(S(=O)(=O)NCCC(=O)NC(C)c2ccccc2)cc1 (stereo not given)	-1.8	2.0	3.2	0.1	-2.9%	10.9	0.686
24	COc1ccc(CCNC(=O)CN(c2ccc(OC)cc2)S(C)(=O)=O)cc1	3.0	3.7	-1.3	0.7	·	6.1	0.663
25	COc1ccccc1NS(=O)(=O)c1ccc(C(=O)NCc2ccc(S(N)(=O)=O)cc2)cc1	0.4	4.0	1.8	0.9	-4.8%	2.2	0.675
26	O=C(C1CCC1)N1CCc2cc(S(=O)(=O)NCc3cccnc3)ccc21	-3.5	1.7	2.5	0.9	-10.2%	-3.1	0.712
27	CCOc1ccc(CNCCc2ccc(S(N)(=O)=O)cc2)cc1	-1.5	4.7	5.7	-0.4	·	-6.0	0.682
28	CCN(CC)S(=O)(=O)c1cc(NC(=O)CSc2nnc(N)s2)ccc1C	1.4	2.4	2.2	1.7	-8.0%	3.8	0.67
29	Cc1c(NC(=O)c2cc(-c3cccc(Cl)c3)on2)c(=O)n(-c2ccccc2)n1C	-0.4	4.9	4.5	0.6	·	5.8	0.673
30	C=CCOC(=O)C1=C(C)NC(SC)=C(C#N)C1c1cccs1 (stereo not given)	-4.7	0.8	-7.8	-0.9	-2.2%	-12.2	0.738
31	O=C(NCCc1c[nH]c2ccccc12)c1ccco1	0.3	3.3	-4.3	0.4	·	1.2	0.653
32	S=C(NCCCc1ccccc1)Nc1ccccc1Cl	3.3	5.0	0.3	-1.4	·	6.8	0.639
33	CCC(=O)Nc1ccc(NC(=S)NC(=O)/C=C/c2ccco2)cc1	0.0	8.1	0.3	0.8	·	-3.6	0.706
34	O=C(NCc1ccc2c(c1)OCO2)c1ccc2c(c1)N(Cc1c(F)cccc1Cl)C(=O)CS2	-0.2	3.9	-3.0	0.9	16.1%	-1.3	0.722
35	N#Cc1cccc(C(c2nnnn2C2CCCC2)N2CCC(Cc3ccccc3)CC2)c1 (stereo not given)	1.4	0.6	-4.5	1.2	-4.0%	31.8	0.726
36	CN(CC(=O)O)S(=O)(=O)c1ccc2oc3ccccc3c2c1	1.6	3.0	13.2	3.1	-1.9%	2.6	0.724
37	CCOC(=O)c1c(NC(=O)CSc2nnc(-c3ccco3)o2)sc(C)c1C	1.8	5.6	-1.1	1.7	2.2%	3.3	0.681
38	Cc1csc(SCC(=O)NC(=O)NC2CCCC2)n1	0.7	1.3	2.0	0.3	10.9%	-1.6	0.706
39	COc1cccc(N2CCN(C3CC(=O)N(c4ccc(C)c(Cl)c4)C3=O)CC2)c1 (stereo not given)	5.9	3.9	-0.5	0.5	21.1%	4.9	0.693
40	Cc1ccc(S(=O)(=O)N2CCOCC2)cc1NC(=O)COC(=O)CCOc1ccc(C(C)(C)C)cc1	-2.9	5.4	-1.4	-1.1	3.3%	-3.1	0.705
41	O=C(NCCCO)/C(=C/c1ccco1)NC(=O)c1ccc(Br)o1	3.0	2.6	-3.5	-0.2	17.4%	-2.4	0.719
42	COc1cccc(CNC(=O)C2CCN(c3nnc(N4CCCC4=O)s3)CC2)c1	-1.4	1.2	3.8	0.6	·	-9.0	0.767
43	CN(CC(=O)OCC(=O)NCc1ccccc1)S(=O)(=O)c1ccc(F)cc1	2.1	3.8	+	0.1	0.5%	0.9	0.707
44	COc1ccc2oc(C(=O)NCc3ccco3)c(C)c2c1	-1.1	-17.2	0.6	0.0	8.3%	-2.0	0.704
45	COc1cccc(CC(NC(C)=O)C(=O)NC2CCN(C(=O)Nc3ccc(C)cc3)CC2)c1 (stereo not given)	0.2	0.8	·	·	·	2.4	0.69
46	COc1ccc(C(CNC(=O)c2ccco2)N2CCCC2)cc1 (stereo not given)	3.3	4.3	0.9	1.4	-7.5%	14.8	0.689
47	COc1cccc(/C=N/NC(=O)c2cc(C34CC5CC(CC(C5)C3)C4)[nH]n2)c1	-0.9	·	-1.1	-1.5	5.0%	6.2	·
48	Cc1ccc(C)c(S(=O)(=O)N2CCN(C(=O)c3ccncc3)CC2)c1	-1.8	1.3	-0.1	0.0	0.4%	-1.9	0.708
49	CC(C)N1CCC(N2CCN(Cc3ccc4nonc4c3)CC2CCO)CC1 (stereo not given)	0.0	2.7	-0.4	-1.1	?	-0.7	0.674
50	O=C(N/N=C/c1ccncc1)c1cccc(S(=O)(=O)Nc2ccc(Cl)cc2)c1	-26.2	·	2.4	0.9	·	-0.9	·
51	Cc1cccc(Cc2nnc(CCC(=O)N(C)C3CCOC3)o2)c1 (stereo not given)	-3.0	2.1	5.3	0.0	66.9%	-0.5	0.707
52	O=C(CSc1nc2ccccc2c(=O)n1CCCN1CCOCC1)Nc1ccc(Br)cc1	1.4	1.8	2.5	1.3	-3.1%	-9.1	0.639
53	O=C(CCC1CCCC1)NNC(=O)c1ccc(F)cc1	-1.8	-2.7	49.6*	-0.2	-2.2%	-1.4	0.701
54	CC(C)C(NC(=O)c1ccccc1)C(=O)OCc1cc([N+](=O)[O-])cc2c1OCOC2 (stereo not given)	-1.4	1.8	-2.2	1.1	·	-9.7	0.659
55	O=C1NC(c2ccc(Cl)cc2)Oc2ccccc21 (stereo not given)	-0.2	2.7	1.9	0.5	3.5%	-6.8	0.683
56	O=C(c1cnc2ccc(Cl)cc2c1Cl)N1CCOCC1	1.7	-1.2	·	·	?	-13.4	0.733
57	CCn1c(CC(=O)Nc2ccc(C)c(Cl)c2)nnc1SCCOc1ccc(OC)cc1	3.9	1.6	-0.1	1.4	20.9%	-4.5	0.679
58	Cc1noc(C)c1S(=O)(=O)N1CCCC(C(=O)NCCC2=CCCCC2)C1 (stereo not given)	2.1	0.3	1.9	0.7	-4.6%	-0.1	0.732
59	CCc1nn(C(CC)C(=O)NCCCc2ccccc2)c(=O)c2cc3occc3n12 (stereo not given)	-3.2	4.8	-0.8	0.9	3.8%	0.3	0.642
60	O=C(O)c1c[nH]c2c(C(F)(F)F)cccc2c1=O	4.5	3.4	0.4	-0.6	5.4%	0.5	0.659

(list continues)
no.	molecule	HNF4A DNA FP	UCH37 DUB inh	LANA-H2B inh	Bfl-1 A1 inh	Vif TR-FRET	Beta2AR agonist	Ecoli growth
61	COc1ccccc1CCNS(=O)(=O)c1cc2c3c(c1)CCN3C(=O)CC2	-2.1	7.8	0.0	-1.4	1.1%	-0.1	0.623
62	CC(=O)Nc1ccc(NS(=O)(=O)c2ccccc2)cc1	3.7	4.1	-4.4	0.8	-1.9%	-4.5	0.672
63	Cc1ccc(-c2cc(C(=O)N/N=C/c3c(C)nn(-c4ccccc4)c3C)n[nH]2)s1	-1.0	·	·	·	1.1%	38.1	·
64	O=C(NCCNS(=O)(=O)c1ccccc1)c1ccc([N+](=O)[O-])cc1	-2.1	3.2	-0.2	1.3	·	-4.4	0.581
65	CCOCCCNC(=O)c1ccc(/C=C2\Oc3ccccc3N(C)C2=O)cc1	2.9	-233.8	2.1	0.3	-13.6%	-0.7	0.669
66	COc1ccc(N2CCN(C(=O)C3CCN(S(=O)(=O)c4ccc(C)cc4)CC3)CC2)cc1	1.2	2.5	-7.2	-1.0	·	-6.7	0.724
67	COC(=O)c1cc(S(=O)(=O)N2CCN(c3ccc(F)cc3)CC2)c[nH]1	1.7	5.0	1.0	0.4	·	2.3	0.711
68	C=CCNc1ncnc2ccc(Br)cc12	1.7	-0.4	-1.8	0.6	7.0%	-3.9	0.661
69	Cc1cc(C)c2c(N)c(C(=O)NCC3CCCCC3)sc2n1	4.0	-221.3	-4.8	0.0	?	-7.9	0.713
70	CCn1c(N)c(C(=O)NCc2ccc3c(c2)OCO3)sc1=S	2.8	8.0	5.2	-0.1	74.9%	9.5	0.754
71	CCc1ccc(CC(=S)N2CCOCC2)cc1	4.0	2.9	1.0	0.3	3.1%	-0.9	0.685
72	CCc1cc(C(=O)c2ccc(C)cc2)c(NC(=O)CCl)s1	1.8	6.4	3.5	-0.2	?	15.4	0.654
73	CCC1CCCN1Cn1cnc2c([nH]c3ccc(C)cc32)c1=O (stereo not given)	2.5	-181.7	2.3	1.7	2.3%	-5.3	0.689
74	Cc1ccc(OCC(=O)NC(C)c2ccccc2)cc1 (stereo not given)	1.0	0.6	3.4	-1.2	·	0.6	0.672

From PubChem BioAssay
